High-throughput results deposited in PubChem BioAssay by Broad Institute.
ALR H2O2 inh: human ALR oxidase inhibition via reduced H2O2; purified ALR, DTT oxidation, H2O2 HRP-luminol luminescence; inhibition, % (test concentration not listed); 3.8% of 290,000 active; AID 485317;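 active = mean and each replicate at 75% or more; inconclusive = only one of the two met; inactive = neither met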;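 also: stock transfer was 7.5 nL into about 7.5 µL; 0% = neutral wells and 100% = wells with inactivated enzyme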
Target sequence (P55789 whole entry, looked up): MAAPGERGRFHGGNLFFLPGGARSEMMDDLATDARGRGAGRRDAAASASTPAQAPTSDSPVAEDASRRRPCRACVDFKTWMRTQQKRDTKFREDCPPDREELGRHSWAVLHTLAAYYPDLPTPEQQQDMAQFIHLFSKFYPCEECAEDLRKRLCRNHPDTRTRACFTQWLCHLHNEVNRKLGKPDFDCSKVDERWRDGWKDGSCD
Beta cell apopt: blocks beta cell apoptosis. INS-1E cytokine-induced death, ATP luminescence, 48 h; percent of positive-control rescue, neutral wells zero. protection from apoptosis, % (test concentration not listed). 0.8% of 300,000 active;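 active = all replicates at 75% or more, or half of them and the mean; inconclusive = half reach 75% but not the mean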;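 also: 0% = cytokine-treated negative control wells and 100% = positive control rescue; higher means more ATP so stronger rescue from cytokine killing; wells of about 40 µL received 100 nL stock; the first replicate is given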
Calb FLC: C. albicans growth modulation with fluconazole | C. albicans CaCi-2 (fluconazole-resistant clinical isolate) + fluconazole, Alamar Blue growth, 48 h | growth inhibition, % (no concentration beside the values) | 0.57% of 300,000 active | AID 1979;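 active = most replicates above 75%; inconclusive = exactly half above 75%; inactive = most below 75%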;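 also: all wells also contain fluconazole at 8 µg/ml as a sub-toxic cotreatment; 0% = median of DMSO wells and 100% = median of geldanamycin control wells; wells of about 8 µL received 7.5 nL stock; the first replicate is given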
T cruzi inh: T. cruzi replication inhibition. T. cruzi beta-gal in NIH3T3, luminescence, 90 h. inhibition, % (concentration not given with the values). 1.4% of 300,000 active;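 active = mean inhibition across valid replicates above about 55%, limit read from the data; inconclusive = mean below that limit but half or more replicates reach it; inactive = mean below it, under half of replicates reach it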;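 also: signal also drops with host cell toxicity which is not excluded here; 0% = plate median of DMSO wells and 100% = zero luminescence signal; higher percent means less beta-gal luminescence so fewer parasites; stock transfer was 50 nL into about 50 µL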
FGF22 binding: FGF22 (human) thermal shift binding | Q9HCT0 | recombinant FGF22 thermal shift, SYPRO orange fluorescence; percent of sucrose octasulfate shift, DMSO zero | calls only at 9.99 µM | 1.5% of 340,000 active | AID 651658;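 active = melting point raised past a set limit in the mean and every replicate; inconclusive = no clear call; three in four hits are not shown here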
Target sequence (Q9HCT0 whole entry, looked up): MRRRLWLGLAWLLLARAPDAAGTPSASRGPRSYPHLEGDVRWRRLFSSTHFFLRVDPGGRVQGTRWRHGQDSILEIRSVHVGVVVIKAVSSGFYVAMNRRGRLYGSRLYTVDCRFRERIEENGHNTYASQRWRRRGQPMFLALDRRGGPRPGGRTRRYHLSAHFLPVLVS
RanGTP-Imp inh: disruptors of Ran-importin-beta complex formation – biochemical, FRET, CFP-Ran, YFP-importin-beta, homogeneous, primary screen | cell-free CFP-Ran/YFP-importin-beta FRET ratio | inhibition, % (test concentration not listed) | 1.1% of 300,000 active | AID 2216;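 active = most replicates above 15%; inconclusive = exactly half above 15%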;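 also: 0% = DMSO wells and 100% = Ran loaded with GDP instead of GTP; wells of about 40 µL received 100 nL stock; the first replicate is given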
MLL AF4-AF9 inh: inhibitors of human MLL-AF4/AF9 interaction | inhibition, % at 10 µM | 0.47% of 350,000 active | P42568 | AID 651704 | AlphaScreen, biotin-AF4 peptide binding to FLAG-AF9;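 active = every replicate reaching a set inhibition limit, whatever the replicate mean, cut at about 25% in these data; inconclusive = mean inhibition reaches that limit but some replicates miss it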;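 also: 0% = plate neutral control median and 100% = total signal loss; the record names both 10 and 1 µM as test concentration; the first replicate is given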
Target sequence (P42568 whole entry, looked up): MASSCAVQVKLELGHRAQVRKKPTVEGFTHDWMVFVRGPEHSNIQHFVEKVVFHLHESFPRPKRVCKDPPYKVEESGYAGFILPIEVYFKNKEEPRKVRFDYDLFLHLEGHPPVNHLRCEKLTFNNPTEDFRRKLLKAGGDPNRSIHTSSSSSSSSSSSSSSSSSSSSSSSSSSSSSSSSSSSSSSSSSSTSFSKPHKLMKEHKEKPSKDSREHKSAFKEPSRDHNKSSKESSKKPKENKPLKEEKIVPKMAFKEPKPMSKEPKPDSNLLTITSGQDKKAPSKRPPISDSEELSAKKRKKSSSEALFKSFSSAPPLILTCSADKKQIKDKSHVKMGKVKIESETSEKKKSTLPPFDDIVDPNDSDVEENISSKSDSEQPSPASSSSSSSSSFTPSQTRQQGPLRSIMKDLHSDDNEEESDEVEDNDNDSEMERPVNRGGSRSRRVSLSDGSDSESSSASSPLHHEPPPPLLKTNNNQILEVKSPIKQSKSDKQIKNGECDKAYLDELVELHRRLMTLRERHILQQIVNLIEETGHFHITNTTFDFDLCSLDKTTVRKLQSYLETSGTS
rRNA inh HTS: selective bacterial rRNA inhibition in E. coli | E. coli WT GFP vs humanized-ribosome RFP mutants, fluorescence, 24 h; active compounds read low; DMSO median 0, no signal -100 | GFP signal change (wild-type ribosome), % (no concentration beside the values) | 1.6% of 350,000 active;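 active = significant combined selectivity score with lowered wild-type GFP, culture density cut under 30%, mutant RFP and density less affected; inactive = any of these conditions unmet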; also: one replicate is shown; some compounds called inactive have numbers as strong as hits
rRNA inh HTS OD600: also measured in rRNA inh HTS; calls as there; OD600 change, %; measured here: OD600 growth;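 optical density of the mix in the first replicate; 0 = DMSO median and -100 = no signal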
rRNA inh HTS RFP: second read-out of rRNA inh HTS, no call of its own (marks repeat the call); RFP signal change, %; measured here: RFP humanized mutant strains;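 first replicate; 0 = DMSO median and -100 = no signal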
* = called active by the depositor; i = inactive; ? = inconclusive; . = not tested or not shown; & = joins results of further samples.

SMILES	ALR H2O2 inh	Beta cell apopt	Calb FLC	T cruzi inh	FGF22 binding	RanGTP-Imp inh	MLL AF4-AF9 inh	rRNA inh HTS	rRNA inh HTS OD600	rRNA inh HTS RFP
CCCNC(=O)CN(c1cccc(F)c1)S(C)(=O)=O	-2	-8	33	-8	.	1.3	.	.	.	.
COc1ccccc1C(=O)N1CC(=O)Nc2ccc(F)cc2C1c1ccccc1 (stereo not drawn)	4	5	-9	-4	i	-2.5	1.8	5	-6	-5.3
CCCOc1ccc(N2C(=O)C3C4C=CC(CC4)C3C2=O)cc1 (stereo not drawn)	0	.	8	?	i	3.9	-1.3	3	-2	-2.0
O=C(c1ccc(CS(=O)(=O)c2ccc(Br)cc2)o1)N1CCCC1	96*	0	2	-20	i	4.6	-0.5	1	2	0.4
COCCn1c(SC(C)C(=O)NCC2CCCO2)nc2sc3c(c2c1=O)CCC3 (stereo not drawn)	-1	.	8	13	i	1.1	0.5	2	0	1.4
COc1ccc(CN2CCN(CCc3ccccc3)C(CCO)C2)c(Cl)c1OC (stereo not drawn)	-4	3	-1	9	i	-1.8	0.8	14	6	1.8
CC1(C)CC(=O)C2=C(C1)Nc1ccccc1N1C(=O)c3ccccc3C21 (stereo not drawn)	-4	4	?	4	i	?	1.6	-1	-8	1.1
Cc1cccc(NC(=S)NC(=O)/C=C/c2ccccc2)n1	4	-2	27	-5	i	-3.3	-0.9	31	17	0.2
Cc1cc(CNC(=O)COc2ccc(F)cc2)c2ccccc2n1	-4	-3	42	-18	.	18*	-0.8	7	5	2.3
CC(C)(C)c1cc(C(=O)N2CCN(c3ncccn3)CC2)ccn1	-19	0	-5	-10	.	6.8	.	.	.	.
CC(C)(C)n1nnnc1C(c1ccc(F)cc1)N1CCC(C(N)=O)CC1 (stereo not drawn)	-7	.	-8	2	i	-1.2	2.3	-4	1	2.6
COC(=O)C(CCSC)NC(=O)CNS(=O)(=O)c1ccc(F)cc1 (stereo not drawn)	-9	-7	3	-2	.	2.0	.	.	.	.
Cc1ccc(NC(=O)Cn2nc(C)cc2C)cc1	-4	-8	-5	-2	.	2.8	.	.	.	.
CCOC(=O)C1=NNC(C(=O)c2ccc(C)cc2)C1c1ccc(C)cc1 (stereo not drawn)	-2	-4	0	20	.	-1.6	.	.	.	.
Cc1cccc(C)c1NC(=O)CN1C(=O)N(C)Cc2ccccc21	14	-9	-18	-11	i	-4.0	-3.6	0	7	0.5
Cn1c(-c2ccco2)nc2cc3ccccc3cc21	.	6	?	-9	.	-0.7	.	.	.	.
CC1Cc2ccccc2N1C(=O)CNc1cccc(S(=O)(=O)N2CCCC2)c1 (stereo not drawn)	-4	1	6	32	.	-2.8	1.7	-19	-15	-4.5
O=C(Cc1nc(-c2cnccn2)no1)NNC(=O)Nc1ccccc1	20	-10	7	2	i	-1.9	-3.9	-5	6	-4.9
O=C(Cc1ccccc1)Nc1ccc2c(c1)CCC2	-7	1	1	-15	i	-3.6	-0.5	-11	-16	-10
CCC(C)[C@H](NC(=O)N1CC(=O)Nc2ccccc21)C(=O)N[C@@H](C(=O)O)c1ccccc1 (stereo partly drawn)	-6	-15	18	?	i	3.9	-0.3	0	4	-1.3
O=C(Cn1cc(C(F)(F)F)ccc1=O)N/N=C/c1ccc(O)cc1	99*	0	13	5	i	0.4	0.5	3	-2	-5.0
Clc1ccc(C(c2nnnn2C2CCCC2)N2CCN(c3nc4ccccc4s3)CC2)cc1 (stereo not drawn)	-6	1	-1	45	.	3.0	.	8	6	2.8
NS(=O)(=O)c1cccc(NC(=O)CSc2ncnc3ccccc23)c1	99*	-4	-1	-15	i	1.9	5.8	-2	-6	-0.5
O=C(CCNS(=O)(=O)c1cccc2nsnc12)NC1CCCc2ccccc21 (stereo not drawn)	-4	1	0	-10	.	-1.2	.	.	.	.
COc1ccc(N2C(=O)CSC2c2ccc3c(c2)OCO3)cc1 (stereo not drawn)	71	-6	14	1	.	0.0	.	.	.	.
CC1(C)CSC(=NCCc2ccccc2)N1	-4	7	-10	10	i	5.9	-1.2	2	13	-2.0
COc1cccc(C(O)c2nccn2Cc2ccccc2)c1OC (stereo not drawn)	11	-11	8	-9	i	2.6	-2.2	14	20	-0.5
COc1ccc(C(=O)Nc2ccccc2N2CCOCC2)cc1S(=O)(=O)N1CCCC1	5	-4	.	.	i	.	4.4	-12	-2	3.0
O=C(Nc1cccc(NC(=O)c2sc3ccccc3c2Cl)c1)c1ccco1	.	-5	-1	-3	i	0.6	-3.1	-20	-12	8.9
CCC1C(=O)NCCN1C(=O)c1cc(COc2cc(C)ccc2C)on1 (stereo not drawn)	-7	-2	-8	-27	i	1.4	0.4	-17	-1	-1.1
CCOC(=O)C1CCN(Cc2nnnn2CCc2ccccc2)CC1	-7	-8	-2	-12	.	0.0	-2.1	11	6	0.9
Cc1nn(CCC(N)=O)c2nc(-c3cccs3)cc(C(F)(F)F)c12	-1	5	37	20	i	-0.8	-0.8	-1	7	1.4
Cc1ccc(O)c(C(=O)CC(=O)c2ccc(Cl)cc2)c1	-8	21	-15	6	i	-0.1	2.0	-41	-54	-5.1
Cn1cc(/C=C/C(=O)N2CCCC(C(=O)c3cccc4ccccc34)C2)cn1 (stereo not drawn)	.	.	16	-2	i	-8.7	1.7	0	-1	-0.3
CCOc1ccccc1NC(=S)N1CCN(c2nc(-c3cccc(OC)c3)cs2)CC1	1	-2	9	17	i	?	3.8	-8	-9	6.1
CCN(CC)S(=O)(=O)c1ccc2c(c1)N(CC(=O)N(CCc1ccncc1)C(C)C)C(=O)CO2	.	-5	17	18	i	-1.8	-0.7	-1	0	-0.4
O=C(CN1CCN(c2ccccc2F)CC1)Nc1ccc2c(c1)CCC2	0	-3	34	8	i	-1.9	1.9	-58	-68	-15
CN(C)c1ccc(C(CNS(=O)(=O)c2cccc([N+](=O)[O-])c2)N2CCOCC2)cc1 (stereo not drawn)	62	-1	9	-11	i	3.1	12	-1	4	-4.5
O=C(CC12CC3CC(CC(C3)C1)C2)N/N=C\c1ccc[nH]1	-19	0	-6	1	i	2.2	4.4	3	-1	0.5
O=C(CSc1nnc(Nc2ccccc2)s1)NCC1CCCO1 (stereo not drawn)	0	-1	.	.	i	.	0.1	0	-6	-1.0
O=C(CSc1nnc(C2CC2)n1-c1ccccc1)NC1CCS(=O)(=O)C1 (stereo not drawn)	.	5	.	.	i	.	-0.8	6	7	-0.8
Cc1nn(C)c(C(=O)NNC(=S)NCc2ccco2)c1Br	.	20	18	-13	i	-1.0	-0.8	0	-6	-1.5
O=C(/C=C/Nc1ccc(F)cc1F)c1ccc(Br)cc1	1	-1	1	-14	i	3.4	-0.5	12	-5	26
O=C(NNC(=O)c1cc(Br)c(Br)s1)c1csc(N2CCOCC2)n1	-2	-5	-2	8	.	-2.8	-1.5	6	7	1.7
COc1ccccc1NC(=O)c1ccc(NC(=O)CN2CCCC2)cc1	22	-1	-19	-4	i	1.3	1.8	9	5	1.1

Part of the list above, showing only rRNA inh HTS and Calb FLC:
| SMILES | rRNA inh HTS | Calb FLC |
| --- | --- | --- |
| CCCNC(=O)CN(c1cccc(F)c1)S(C)(=O)=O | . | 33 |
| O=C(CCNS(=O)(=O)c1cccc2nsnc12)NC1CCCc2ccccc21 (stereo not drawn) | . | 0 |

Later entries.
SMILES	ALR H2O2 inh	Beta cell apopt	Calb FLC	T cruzi inh	FGF22 binding	RanGTP-Imp inh	MLL AF4-AF9 inh	rRNA inh HTS	rRNA inh HTS OD600	rRNA inh HTS RFP
Cc1ccc(NS(=O)(=O)c2ccc(OCC(=O)NCC3CCCO3)cc2)cc1 (stereo not drawn)	-4	6	1	5	i	?	0.6	6	4	0.6
OC(c1ccccn1)C1CCN(Cc2nc(C(c3ccccc3)c3ccccc3)no2)CC1 (stereo not drawn)	-12	0	?	11	i	-3.6	-0.9	-3	-1	0.2
Cc1ccnc(SCC(=O)Nc2cccc(S(=O)(=O)N3CCOCC3)c2)n1	-3	-3	.	.	i	.	-0.5	3	0	-0.3
COc1cccc(-c2nc(CS(=O)(=O)CC(=O)NCCc3ccc(OC)cc3OC)c(C)o2)c1	59	4	-8	23	i	-0.5	7.1	0	-23	3.8
Cc1cnc(SCc2ccc(Cl)cc2Cl)[nH]c1=O	-27	-5	-5	-5	i	-3.3	-2.1	-7	-14	-5.3
COc1cc(C(=O)NNC(=O)CNC(=O)c2ccc(Br)o2)cc(OC)c1OC	0	3	-3	-5	i	3.4	-0.7	18	17	2.3
COc1ccc([N+](=O)[O-])cc1N(CC(O)CN(CC(C)C)CC(C)C)S(=O)(=O)c1ccccc1 (stereo not drawn)	-13	3	-5	16	i	4.4	2.1	-19&-11	-27&-1	-1.3&4.6
Cc1cc(C)nc(NC(=O)Cc2cccs2)n1	-17	6	-11	-2	.	-6.9	.	.	.	.
C=CCNc1oc(-c2ccc(OC)cc2)nc1C#N	3	-7	?	12	.	1.2	.	.	.	.
COc1ccc(Cn2c(-c3ccco3)nc3oc4cc(OC)ccc4c(=O)c3c2=O)cc1	-5	.	28	16	.	7.5	.	.	.	.
CC1CCCc2sc3ncn(N)c(=N)c3c21 (stereo not drawn)	-1	-8	8	-2	i	-3.4	6.8	-11	-16	-0.1
CCN1CCN(C(=O)c2ccc3c(c2)N(Cc2ccc(C)cc2)CCS3)CC1	99*	6	-7	12	i	-1.9	14	-19	-14	0.1
CCOC(=O)Cc1csc(NC(=O)CSc2nnc(C(C)C)n2CC)n1	-9	0	-1	-2	.	5.9	.	.	.	.
O=C(Nc1ccccc1Cl)C1CC(=O)N(Cc2ccco2)C1 (stereo not drawn)	1	-5	.	.	i	.	1.3	4	6	-2.1
O=C(NCCNC(=O)c1ccccc1F)c1ccccn1	2	-1	-7	6	i	1.2	-0.1	1	5	-3.2
CCCn1c(SCC(=O)Nc2ccccc2Oc2ccccc2)n[nH]c1=O	4	1	2	-5	.	-3.6	.	.	.	.
Cc1ccc(S(=O)(=O)Nc2c(C(=O)O)[nH]c3ccccc23)cc1C	98*	0	.	1	i	1.5	0.2	8	5	3.9
CC(=O)OCC(OC(C)=O)C(OC(C)=O)C(OC(C)=O)C(=O)Nc1cccc(C)c1 (stereo not drawn)	-14	4	3	0	i	2.3	0.4	.	.	.
CN(C)c1ccc(/C=C(\C#N)C(=O)Nc2nc3c(s2)CCN(Cc2ccccc2)C3)cc1	-1	12	-11	15	.	-1.6	.	.	.	.
COC(=O)CCCC1=CC2=CC(=O)C(C)(OC(=O)c3cccs3)C(=O)C2=CN1C1CCCC1 (stereo not drawn)	-31	3	21	-5	i	3.7	3.3	21	25	16
COc1cc2[nH]c(=O)n(CCC(=O)N3CCN(c4cc(Cl)ccc4C)CC3)c(=O)c2cc1OC	13	7	10	25	.	1.2	.	.	.	.

These rows are one share of the data; the hit share may differ from the screen's.
